Assay outcomes from PubChem.
SmPrx2 inh – blocks S. mansoni peroxiredoxin 2 enzymatic activity; S. mansoni Prx2 activity coupled to TGR/GSH (TGR is thioredoxin glutathione reductase), NADPH fluorescence loss, qHTS; some inactives read as strong as hits; Potency, µM; 65,000 compounds, 0.07% hits; active means full or partial inhibition curve with a strong effect at the top dose; inconclusive means weaker partial or single-point curve; inactive means no accepted curve; note: series up to 57 µM; many of its hits are not listed in these tables
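Activity is read as the drop in NADPH fluorescence (365/450 nm), recorded every 30 sec for 8 min after H2O2 addition. Prx2 is coupled to TGR-driven NADPH oxidation through glutathione, in phosphate buffer pH 7.4.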
Anthrax LT inh – blocks cellular internalization of anthrax lethal toxin. Cells, anthrax lethal toxin internalization, FRET ratio (460/530). Potency, µM (titrated, usually from 40 µM), inactives show at the highest dose activity change, negative = inhibition, most hits filed as inhibitors. 70,000 compounds, 0.67% hits; active = well fitted falling ratio curve with the 530 nm signal flat; inconclusive = other ratio curves, or a change in one channel alone; inactive = flat curves in the ratio and both channels; the % refers to the ratio; note: % is set by controls: 0 for no effect and ±100 for the full control effect; nearly all actives have a fitted effect of over 50% in size; tested in ME-180 cells; beta-lactamase reporter
Starred values were filed as active, the others as inactive; ? = inconclusive; / = not tested or not shown; [ ] = dose if it differs, or a comment. Potency is the fitted concentration of half-maximal effect. Not all compounds are listed; count on the stated rates, not on these rows.

Under each structure: Anthrax LT inh | SmPrx2 inh
> CCOC(=O)c1c(-c2ccc(OC)cc2)nc2nonc2c1N
→ 0% | >57
> C[C@H](NCCN(C)C)[C@@H]1CCC2C3CCc4cc(O)ccc4[C@H]3CCC21C (stereo not given in full)
→ ? | >57
> CCSc1nc2c(c(=O)[nH]1)C(C(C)C)C(C#N)=C(N)O2 (stereo not given)
→ 12% | >57
> O=C(CSc1nnc(-c2cccnc2)n1Cc1ccco1)c1ccc(Cl)c(Cl)c1
→ ? | >57
> CCOc1ccc(CCNC(=O)C(CC)n2nc(C)n3c(cc4sccc43)c2=O)cc1OCC (stereo not given)
→ 4% | >57
> COc1cc(CN2CCN(c3ccccc3F)CC2)cc(OC)c1O
→ -3% | >57
> O=C(CCCCn1c(=O)c2ccccc2n(CC(=O)Nc2cccc(F)c2)c1=O)NCc1ccco1
→ 14% | >57
> CC(C)CN(CC(C)C)c1nc(N)c(C#N)c(CC#N)c1C#N
→ ? | >57
> O=C(O)CC(CC(=O)O)C(=O)O
→ 1%[8 µM] | >57
> COC(=O)C(/C=C/C(C)Cc1cc(Br)cc(OCc2ccccc2)c1OC)OCc1ccccc1 (stereo not given)
→ -22%[8 µM] | /
> CC(=O)Nc1ccccc1NC(=O)C(F)(F)F
→ -9% | /
> NC12CC3CC(C1)CC(O)(C3)C2
→ / | >57
> Nc1nc2nc3c(nc2c(=O)[nH]1)CN(c1ccc(C(=O)O)cc1)C3=O
→ -14%[8 µM] | >57
> Cc1ccccc1N1C(=O)c2cccc3c(N(C)CCO)ccc(c23)C1=O
→ -4% | /
> CCOc1ccc2[nH]c(=O)c(CN(Cc3nnnn3CCc3ccccc3)CC3CCCO3)cc2c1 (stereo not given)
→ -1% | >57
> CC1CCN(S(=O)(=O)c2ccc(Br)s2)CC1
→ ? | >57
> CC(=O)OC(C(=O)NCc1ccc2c(c1)OCO2)c1ccccc1Cl (stereo not given)
→ 0% | >57
> CCCN(CCC)CCNC(=O)c1cc2c(=O)n(C)c3ccccc3c2n1C
→ 4µM* | >57
> c1ccc(CNc2ncncc2-c2ccoc2)cc1
→ -10% | >57
> CC1CN(C(=O)Cn2cnc3c2c(=O)n(C)c(=O)n3C)CC(C)O1 (stereo not given)
→ -3% | >57
> COCCn1c(CN2CCN(c3ccc(OC)cc3)CC2)nc2c1c(=O)n(C)c(=O)n2C
→ -8% | >57
> O=C(O)c1cc(Cl)cc(Cc2cc(Cl)cc(C(=O)O)c2O)c1O
→ ? | >57
> Cc1ccccc1-c1cncnc1NCc1cccs1
→ -13% | >57
> Cc1ccc(S(=O)(=O)N2CCOCC2)cc1C(=O)Nc1c(C)n(C)n(-c2ccccc2)c1=O
→ 2% | >57
> COc1ccc(OC)c(Nc2nc(-c3cccs3)cs2)c1
→ ? | >57
> COc1ccc(CNC(=O)CSc2nnnn2Cc2ccccc2)cc1
→ -7% | >57
> O=C(O)CCC(=O)N1CCN(c2nc3ccccc3s2)CC1
→ ? | >57
> O=C(c1ccco1)N1CCC2(CC1)CN(c1ccccc1)C2
→ 2% | >57
> O=C(O)C1CCCN1S(=O)(=O)c1cccc2cccnc12 (stereo not given)
→ 1% | >57
> C=CCn1c(SCc2nc3c(c(=O)[nH]c(=O)n3CCCC)n2CCC)nnc1-c1ccccc1
→ 10% | >57

Single entries from the results shown.
Anthrax LT inh with Cc1ccccc1-c1cncnc1NCc1cccs1 reads -13%
Anthrax LT inh with CCOc1ccc2[nH]c(=O)c(CN(Cc3nnnn3CCc3ccccc3)CC3CCCO3)cc2c1 (stereo not given) reads -1%

Next entries.
Under each structure: Anthrax LT inh | SmPrx2 inh
> Cc1sc2nc(SCC(=O)c3cc(C)n(CC4CCCO4)c3C)n(C(C)C)c(=O)c2c1C (stereo not given)
→ -8% | >57
> CCOC(=O)CCN1C(=O)[C@H]2[C@H]3[C@H](O)[C@H](O)C/C(=N/O[C@@H]4O[C@@H](COC(C)=O)[C@@H](OC(C)=O)[C@@H](OC(C)=O)[C@H]4OC(C)=O)[C@@H]3CC[C@@H]2C1=O
→ 2%[8 µM] | /
> C=CC[C@@H]1C=C[C@@H](O/N=C\[C@@H](OC)[C@H](C)/C=C\CC(=O)OC)[C@@H](CO)O1
→ -4%[1.6 µM] | /
> COc1ccc(N2C(=O)CCC(C(=O)N3CCC(C(N)=O)CC3)C2c2ccc(F)cc2)cc1 (stereo not given)
→ 8% | >57
> CN1CCCN([C@@H](c2ccccc2)c2ccc(Cl)cc2)CC1
→ 5%[3.58 µM] | >57
> CC(C)(C)n1ncc2c(=O)n(CC(=O)N3CCc4ccccc43)cnc21
→ -3% | >57
> COc1ccc(N(CC(O)CN2CCCCC2)S(=O)(=O)c2ccc(C)cc2)cc1 (stereo not given)
→ 21% | >57
> Cc1c(NS(C)(=O)=O)c(=O)n(-c2ccccc2)n1C
→ -8% | >57
> CCOC(=O)Cc1csc(NC(=O)c2ccc3c(c2)OCO3)n1
→ 1% | >57
> Cc1[nH]c2ccc(-c3nnc(SCC(=O)N4CCCc5ccccc54)o3)cc2c1C
→ 9% | >57
> CCCCNc1nc(C)nc2c1nc(-c1ccccc1)n2CCCN(C)C
→ -14% | /
> CCOC(=O)C1=C(C)NC2=C(C(=O)CCC2)C1c1cccs1 (stereo not given)
→ 4% | >57
> Cc1noc(C)c1COC(=O)CCC(=O)c1ccc(F)cc1
→ 10% | >57
> COc1ccc(C)cc1S(=O)(=O)Nc1cccc(SC)c1
→ -20% | >57
> CCC1(CC)Nc2ccccc2C(=O)N1c1ccc(NC(C)=O)cc1
→ 1% | >57
> Cc1ccc(NC(=O)c2cc(C)on2)cc1
→ -25% | >57
> CCOc1ccc(Nc2ncnc3c2cnn3-c2ccccc2)cc1
→ 6% | >57
> COc1ccc(NC(=O)N2CCC3(CC2)CCN(C(=O)c2ccncc2)CC3)cc1
→ 13% | >57
> CSc1ccc(-c2nnn(Cc3ccc(C)cc3)n2)cc1
→ ? | >57
> c1cncc(-c2cncnc2NC2CCNCC2)c1
→ -3% | >57
> CCS(=O)(=O)NCC(c1cccnc1)N1CCN(c2ccc(F)cc2)CC1 (stereo not given)
→ 6% | >57
> Cc1cc(C(=O)N2CCOCC2)n(-c2ccccc2)n1
→ -15% | >57
> N#CC1=C(N)OC2=C(C(=O)CCC2)C12CCN(C(=O)OCc1ccccc1)CC2
→ -23% | >57
> CC(=O)N1CCN(C2=Nc3cccc4cccc2c34)CC1
→ -16% | >57
> CCCc1cc(C(N)=O)c(NC(=O)C2CCCO2)s1 (stereo not given)
→ -14% | >57
> Cc1ccc(C(C)C)c(Oc2nnnn2-c2ccccc2)c1
→ -28% | >57
> COc1ccc(OC)c(S(=O)(=O)N2c3cc(F)ccc3CCC2C)c1 (stereo not given)
→ -19% | >57
> O=C(NCc1ccccn1)c1c(O)c2c([nH]c1=O)CCCC2
→ 3% | >57
> CC(C)CCNC(=O)CCNS(=O)(=O)c1ccc(Cl)cc1
→ -21% | >57
> O=C(NC1CCCCC1)c1ccc(S(=O)(=O)N2CCOCC2)cc1
→ -7% | /
> O=C(Nc1ccc(NC(=O)C2CC2)nc1)c1ccco1
→ -25% | >57
> Cc1c(Cl)cccc1NC(=O)CC(C(=O)O)C1CCCO1 (stereo not given)
→ -13% | >57
> CC(=O)c1ccc(NC(=O)c2noc3c2CCCCC3)cc1
→ 8% | >57
> CCOC(=O)C(NC(=O)CC)(Nc1ccc(S(=O)(=O)Nc2ncccn2)cc1)C(F)(F)F (stereo not given)
→ ? | >57
> CCN(CC)c1ccc(NC(=O)CN2CCN(CC(=O)Nc3ccc(F)cc3)CC2)cc1
→ -3% | >57
> COc1ccc(C(=O)NC2CC3CCCC(C2)N3CC(C)C)cc1OC (stereo not given)
→ -17% | >57
> Cc1csc(-c2cnn(-c3ccccc3)c2NC(=O)c2ccccc2)n1
→ -13% | >57
> CCOC(=O)c1c(N)sc(C(=O)N2CCOCC2)c1C
→ ? | >57
> CCn1c(C)c(C(C)=O)c(N2CCC(C(N)=O)CC2)nc1=S
→ -10% | >57
> CCCc1cc2c(c(=O)o1)C(O)C1OC1C2=O (stereo not given)
→ ? | /
> O=C(CSc1ncc(-c2ccc(F)cc2)n1Cc1ccco1)Nc1ccc2c(c1)OCO2
→ ? | >57
> CCOC(=O)c1c(C)[nH]c(C(=O)OCC(=O)N2CCN(S(=O)(=O)c3ccccc3)CC2)c1C
→ 0% | >57
> COCCCn1c(=NC(=O)c2ccc3c(c2)OCO3)c(C#N)cc2c(=O)n3cccc(C)c3nc21
→ / | >57
> O=C(CSc1nc2ccccc2c(=O)n1CC1CCCO1)NCC1CCCO1 (stereo not given)
→ 14% | >57
> N=C1C(c2ccccc2)=C(O)CN1Cc1ccco1
→ 0% | >57
> CC(C)n1c(N2CCN(CC(=O)NCc3cccs3)CC2)nc2ccccc21
→ 4% | >57
> Clc1cccc2sc(N3CCCCC3)nc12
→ -29% | >57
> O=c1c2cc(N3CCOCC3)ccc2[nH]c(=S)n1CCCN1CCN(c2ccccc2F)CC1
→ ? | >57
> Fc1ccc2c(c1)nnn2C1CCN(Cc2ccccc2)CC1
→ 8% | >57
> Cc1ccc(C(C(=O)NC(C)(C)C)N(CC2CCCO2)C(=O)Cn2nnc(-c3ccc(C)o3)n2)cc1 (stereo not given)
→ 1% | >57
> Cc1cn[nH]c1
→ 6% | >26
> COc1ccc(-n2c(=O)c(-c3cn(C)c4ccccc34)nc3cnc(N4CCNCC4)nc32)cc1
→ ? | >57
> C=CCc1c(C)c(C#N)c2nc3ccccc3n2c1NCCN(C)C
→ -1% | >57
> CCOC(=O)c1ccc(NS(=O)(=O)c2cccc3nsnc23)cc1
→ ? | >57
> COCc1[nH]nc2c1C1(C(=O)Nc3ccc(F)cc31)C(C#N)=C(N)O2 (stereo not given)
→ / | >57
> COc1ccccc1-c1nnc(NC(=O)C(C)C)s1
→ 1% | >57
> Cn1c(=O)c2c(nc(SCCN3CCCCC3)n2Cc2ccccc2)n(C)c1=O
→ 1% | >57
> O=C(NCC1COc2ccccc2O1)c1cn(Cc2ccc(F)cc2)nn1 (stereo not given)
→ 6% | >57
> Cc1ccc(S(=O)(=O)NCC(=O)N(CC(=O)NC2CCCCC2)Cc2ccco2)cc1
→ 7% | >57
> COc1ccccc1NC(=O)CSc1nnc(C)n1Cc1ccccc1
→ 8% | >57

Of the compounds above, these have a COOH group.
Under each structure: Anthrax LT inh | SmPrx2 inh
> O=C(O)CC(CC(=O)O)C(=O)O
→ 1%[8 µM] | >57
> Nc1nc2nc3c(nc2c(=O)[nH]1)CN(c1ccc(C(=O)O)cc1)C3=O
→ -14%[8 µM] | >57
> O=C(O)c1cc(Cl)cc(Cc2cc(Cl)cc(C(=O)O)c2O)c1O
→ ? | >57
> O=C(O)CCC(=O)N1CCN(c2nc3ccccc3s2)CC1
→ ? | >57
> O=C(O)C1CCCN1S(=O)(=O)c1cccc2cccnc12 (stereo not given)
→ 1% | >57
> Cc1c(Cl)cccc1NC(=O)CC(C(=O)O)C1CCCO1 (stereo not given)
→ -13% | >57

The listing continues.
Under each structure: Anthrax LT inh | SmPrx2 inh
> CC(=O)Nc1nc(-c2ccccc2)nc(C)c1C(C)=O
→ -3% | >57
> O=C(c1csnn1)N1CCC2(CC1)CN(c1ccccc1)C2
→ 1% | >57
> NCCc1cnc[nH]1
→ ? | >57
> CCOC(=O)NC(=O)CSc1nnc(C)s1
→ 0% | >57
> CCCN1c2cccc3cccc(c23)S1(=O)=O
→ -12% | >57
> CC1=C/C(=N/O)C([C@H]2C=C(C)CC(C)(C)[C@@H]2O)C(C)(C)C1 (stereo not given in full)
→ -12%[8 µM] | >57
> O=C(CSc1nnc(Cc2cccs2)n1Cc1ccco1)Nc1ccc(Br)cc1
→ ? | >57
> CCC(C)(C)NC(=O)C(c1ccccc1F)N(Cc1ccco1)C(=O)c1csnn1 (stereo not given)
→ ? | >57
> Cc1ccc(C)c(SCC(=O)OCC(=O)Nc2ccc(S(=O)(=O)N3CCOCC3)cc2)c1
→ 6% | >57
> COC(=O)C1=C(CSc2nnnn2C)NC(=O)NC1c1cc(C)ccc1C (stereo not given)
→ -3% | >57
> CCCCCCCC#Cc1ccccc1/C=N/S(=O)C(C)(C)C (stereo not given)
→ -17%[8 µM] | /
> Cn1nnnc1SCCNS(=O)(=O)c1ccccc1
→ 2% | >57
> N#Cc1c(N)oc(-c2ccccc2)c1-c1ccccc1
→ -1% | >57
> O=C(CSc1nnc(-c2ccc(F)cc2)o1)Nc1ccc(S(=O)(=O)N2CCCC2)cc1
→ -3% | >57
> COc1ccccc1-c1cc(C(=O)NCc2ccccc2)no1
→ ? | >57
> O=C(Oc1ccccc1)N1CCC2(CCCN(Cc3nccs3)C2)CC1
→ 5% | >57
> Cc1ccc(-n2c(SCC(=O)NCC3CCCO3)nc3c(c2=O)SCC3)cc1 (stereo not given)
→ -8% | >57
> Cc1cccc(-c2cc3nc4c(c(N5CCOCC5)n3n2)CCCC4)c1
→ ? | >57
> C=CCOc1cccc(C2C(C(=O)c3ccco3)=C(O)C(=O)N2Cc2ccncc2)c1 (stereo not given)
→ 12% | >57
> CCOC(=O)CC(=O)CSCC(=O)Nc1ccc(C)cc1
→ ? | >57
> Cc1nn(-c2ccccc2)c(C)c1C(=O)OCC(=O)N1CC(=O)Nc2ccccc21
→ -16% | >57
> O=C(Nc1cccc(F)c1)N1CC[C@@]2(CCCN(S(=O)(=O)c3ccccc3)C2)C1
→ -1% | >57
> C=CCNC(=O)CC(C)C(CCCCC)C(=O)O (stereo not given)
→ ? | >57
